HIV Env fusion: inhibitors of HIV-1 Env-driven cell-cell fusion, primary screen, HeLa-JRFL effector, CEM21 target cells, luciferase; inhibition, % at 12.3 µM; actives 1.1% (n = 360,000); AID 651610, 2012;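 active = mean replicate inhibition score of at least 50 and every replicate individually at or above 50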;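 note: 0% = plate neutral controls and 100% = maraviroc near 300 nM; one replicate is shown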
Yeast UUG start: modulators of yeast start codon fidelity, primary screen, whole organism, S. cerevisiae, single point, plate reader | S. cerevisiae UUG-firefly luciferase reporter, luminescence/redox ratio | actives 0.13% (n = 350,000) | activity score, % at 18.7 µM;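 active = replicate mean at a twofold rise or more, about +100% in these data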;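 note: firefly luciferase made from a UUG start codon reports start codon fidelity; reporter light over untreated wells divided by growth signal over untreated wells; some hits fall short of that in this replicate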
Numbers without * were called inactive; [ ] = dose if it differs, or a comment. Only part of the results is shown (hit frequency here may not be typical).

Yeast UUG start	HIV Env fusion	smiles
-3	-8[16.7 µM]	COc1cccc(CNC(=O)C[C@@H]2CC[C@H](NS(=O)(=O)c3ccccc3OC)[C@H](CO)O2)c1
-3	-5[16.7 µM]	Cc1ccc(S(=O)(=O)Nc2ccc3c(c2)C(=O)N([C@@H](C)CO)C[C@H](C)[C@H](CN(C)S(C)(=O)=O)O3)cc1
1	10[16.7 µM]	CNC[C@H]1Oc2ncc(-c3ccccc3F)cc2C(=O)N([C@H](C)CO)C[C@H]1C
10	-18[16.7 µM]	C[C@@H]1CN([C@H](C)CO)S(=O)(=O)c2ccc(-c3ccccc3)cc2O[C@H]1CN(C)C(=O)Cc1ccccc1
-6	10[16.7 µM]	C[C@@H]1CN([C@H](C)CO)C(=O)c2cccc(NS(=O)(=O)c3ccc(F)cc3)c2O[C@@H]1CN(C)S(=O)(=O)c1ccccc1
5	-7[16.7 µM]	O=C(O)C[C@@H]1C[C@H]2c3cc(NC(=O)Nc4ccccc4F)ccc3O[C@H]2[C@H](CO)O1
-4	7[16.7 µM]	C[C@@H]1CN([C@H](C)CO)C(=O)c2cc(-c3cccnc3)cnc2O[C@@H]1CN(C)C(=O)Cc1cccnc1
-11	-4[16.7 µM]	C[C@H]1CN([C@@H](C)CO)C(=O)Cc2cc(NC(=O)Nc3ccc(C(F)(F)F)cc3)ccc2O[C@@H]1CN(C)Cc1ccc2c(c1)OCO2
7	-25[16.7 µM]	COCC#Cc1ccc2c(c1)O[C@@H](CN(C)C)[C@@H](C)CN([C@H](C)CO)S2(=O)=O
11	-4[16.7 µM]	C[C@H]1CN([C@@H](C)CO)C(=O)c2cccc(NS(C)(=O)=O)c2O[C@@H]1CN(C)C(=O)Nc1ccc2c(c1)OCO2
-17	21[16.7 µM]	C[C@@H]1CCCCO[C@@H](CN(C)C(=O)c2ccccc2)[C@H](C)CN([C@H](C)CO)C(=O)c2cc(NC(=O)Nc3ccc(C(F)(F)F)cc3)ccc2O1
5	-24[16.7 µM]	COc1ccc(S(=O)(=O)Nc2ccc3c(c2)C(=O)N([C@H](C)CO)C[C@H](C)[C@@H](CN(C)Cc2ccc(-c4ccccc4)cc2)O3)cc1
-1	0[16.7 µM]	C[C@@H]1CN([C@@H](C)CO)C(=O)c2cc(NC(=O)CCCN(C)C)ccc2O[C@@H](C)CCCCO[C@@H]1CN(C)S(=O)(=O)c1ccccc1
-5	-16[16.7 µM]	C=CC[C@]1(C(=O)OC)COC(c2ccc(OCCCO)cc2)=N1
4	-6[16.7 µM]	Cc1cc(C(=O)Nc2cccc3c2O[C@@H](CN(C)C(=O)NC2CCCCC2)[C@@H](C)CN([C@H](C)CO)C3=O)n(C)n1
19	-12[16.7 µM]	CCCNC(=O)N(C)C[C@@H]1Oc2ncc(C#CC3CC3)cc2C(=O)N([C@@H](C)CO)C[C@H]1C
29	2[16.7 µM]	Cc1ccc(S(=O)(=O)N(C)C[C@@H]2Oc3ccc(NS(=O)(=O)c4ccc(Cl)cc4)cc3CC(=O)N([C@@H](C)CO)C[C@@H]2C)cc1
6	-8[16.7 µM]	C[C@H]1CN([C@@H](C)CO)C(=O)Cc2cc(NC(=O)Nc3ccc(C(F)(F)F)cc3)ccc2O[C@@H]1CN(C)C(=O)Nc1cccc2ccccc12
6	22[16.7 µM]	CCC(=O)N(C)C[C@@H]1Oc2ncc(C#Cc3ccccc3OC)cc2C(=O)N([C@@H](C)CO)C[C@@H]1C
-13	9[16.7 µM]	N#C[C@@H]1[C@@H](c2ccc(-c3ccncc3)cc2)[C@@H](CO)N1C(=O)Cc1ccccc1
-25	-17[16.7 µM]	O=C(C[C@@H]1CC[C@H](NC(=O)Nc2cc(F)ccc2F)[C@@H](CO)O1)NCc1ccncn1
-24	-13[16.7 µM]	C[C@H](CO)N1C[C@H](C)[C@H](CN(C)C(=O)Cc2cccnc2)Oc2cc(-c3cncnc3)ccc2S1(=O)=O
-19	-8[16.7 µM]	O=C(NCC[C@@H]1CC[C@H](NS(=O)(=O)c2cccc(F)c2)[C@H](CO)O1)C1CC1
-3	36[16.7 µM]	C[C@H](CO)N1C[C@H](C)[C@H](CN(C)Cc2ccccc2)Oc2ccc(NC(=O)Nc3ccc(F)cc3)cc2CC1=O
30	8[16.7 µM]	C[C@@H]1CN([C@@H](C)CO)C(=O)c2cc(NC(=O)Nc3ccc(F)cc3)ccc2O[C@@H](C)CCCCO[C@H]1CN(C)Cc1ccccc1

Among those listed so far, these contain a CF3 group.
Yeast UUG start	HIV Env fusion	smiles
-11	-4[16.7 µM]	C[C@H]1CN([C@@H](C)CO)C(=O)Cc2cc(NC(=O)Nc3ccc(C(F)(F)F)cc3)ccc2O[C@@H]1CN(C)Cc1ccc2c(c1)OCO2
-17	21[16.7 µM]	C[C@@H]1CCCCO[C@@H](CN(C)C(=O)c2ccccc2)[C@H](C)CN([C@H](C)CO)C(=O)c2cc(NC(=O)Nc3ccc(C(F)(F)F)cc3)ccc2O1
6	-8[16.7 µM]	C[C@H]1CN([C@@H](C)CO)C(=O)Cc2cc(NC(=O)Nc3ccc(C(F)(F)F)cc3)ccc2O[C@@H]1CN(C)C(=O)Nc1cccc2ccccc12

Later entries:
Yeast UUG start	HIV Env fusion	smiles
-8	-3[16.7 µM]	C[C@H]1CN([C@@H](C)CO)C(=O)c2cc(NS(C)(=O)=O)ccc2O[C@H]1CN(C)Cc1ccc(C(=O)Nc2ccccc2N)cc1
1	6[16.7 µM]	CO[C@H]1CN(C)C(=O)c2cc(NS(C)(=O)=O)ccc2OC[C@H](C)N(Cc2ccccc2)C[C@@H]1C
-14	-19[16.7 µM]	CC(C)CC#Cc1ccc2c(c1)O[C@H](CN(C)Cc1ccccn1)[C@H](C)CN([C@H](C)CO)S2(=O)=O
1	24[16.7 µM]	COCC#Cc1ccc2c(c1)O[C@@H](CN(C)Cc1ccc3c(c1)OCO3)[C@H](C)CN([C@H](C)CO)S2(=O)=O
-9	2[16.7 µM]	C[C@@H]1CN([C@@H](C)CO)C(=O)Cc2cc(NS(=O)(=O)c3ccc(F)cc3)ccc2O[C@@H]1CN(C)Cc1ccccc1
4	22[16.7 µM]	C[C@@H]1CN([C@H](C)CO)C(=O)c2cc(NC(=O)Cc3cn(C)c4ccccc34)ccc2O[C@@H]1CN(C)Cc1ccccc1
0	0[16.7 µM]	C[C@H](CO)N1C[C@H](C)[C@H](CN(C)C(=O)NC2CCCCC2)OCCCC[C@H](C)Oc2ccc(NC(=O)Nc3cccc4ccccc34)cc2C1=O
1	9[16.7 µM]	O=C(Cc1ccccn1)NCC[C@H]1CC[C@@H](NS(=O)(=O)c2ccccc2)[C@@H](CO)O1
-4	-20[16.7 µM]	C[C@H](CO)N1C[C@H](C)[C@H](CN(C)S(=O)(=O)c2ccc(Cl)cc2)Oc2c(NS(=O)(=O)c3ccc(Cl)cc3)cccc2C1=O
12	14[16.7 µM]	Cc1cc(C(=O)Nc2cccc3c2O[C@H](CN(C)Cc2ccc(Cl)c(Cl)c2)[C@@H](C)CN([C@@H](C)CO)C3=O)n(C)n1
4	18[16.7 µM]	C[C@@H]1CN([C@H](C)CO)S(=O)(=O)c2ccc(-c3cccc(F)c3)cc2O[C@H]1CN(C)C(=O)C1CC1
-3	-20[16.7 µM]	Cc1noc(C)c1NC(=O)N(C)C[C@@H]1OCCCC[C@@H](C)Oc2ccc(NS(=O)(=O)c3ccc(Cl)cc3)cc2C(=O)N([C@@H](C)CO)C[C@H]1C
-17	1[16.7 µM]	C[C@H](CO)N1C[C@H](C)[C@H](CN(C)C(=O)CCC(F)(F)F)OCCCC[C@H](C)Oc2ccc(NC(=O)CCC(F)(F)F)cc2C1=O
31	22[16.7 µM]	COc1ccccc1NC(=O)N[C@@H]1C=C[C@H](CC(=O)N2CCC(Cc3ccccc3)CC2)O[C@H]1CO
-2	17[16.7 µM]	O=C(Nc1ccc2c(c1)[C@@H]1C[C@@H](CC(=O)N3CCc4ccccc4C3)O[C@@H](CO)[C@@H]1O2)C1CCC1
26	-7[16.7 µM]	CCNC(=O)Nc1ccc2c(c1)C(=O)N(C)[C@H]1CC[C@H](CC(=O)NCC3CCCCC3)O[C@@H]1CO2
24	0[16.7 µM]	CCC(=O)N(C)C[C@@H]1Oc2ncc(C3=CCCC3)cc2C(=O)N([C@@H](C)CO)C[C@@H]1C
4	19[16.7 µM]	CCCC#Cc1ccc2c(c1)O[C@@H](CN(C)C(=O)CC1CC1)[C@@H](C)CN([C@H](C)CO)S2(=O)=O
-3	7[16.7 µM]	COCC#Cc1ccc2c(c1)O[C@@H](CN(C)Cc1cncnc1)[C@@H](C)CN([C@H](C)CO)S2(=O)=O
-12	-7[16.7 µM]	O=C(Nc1ccccc1)Nc1ccc2c(c1)[C@@H]1C[C@H](CC(=O)N3CCOCC3)O[C@H](CO)[C@@H]1O2
-3	-5[16.7 µM]	Cc1ccc(S(=O)(=O)N(C)C[C@H]2Oc3c(NS(=O)(=O)c4cccs4)cccc3C(=O)N([C@H](C)CO)C[C@H]2C)cc1
-21	12[16.7 µM]	C[C@@H]1CN([C@H](C)CO)C(=O)Cc2cc(NC(=O)NC3CCCCC3)ccc2O[C@H]1CN(C)Cc1ccc(Oc2ccccc2)cc1
3	4[16.7 µM]	COc1ccc(C#Cc2cnc3c(c2)C(=O)N([C@@H](C)CO)C[C@H](C)[C@H](CN(C)C(=O)CN(C)C)O3)cc1
-4	-4[16.7 µM]	Cc1noc(C)c1NC(=O)N(C)C[C@H]1OCCCC[C@H](C)Oc2ccc(NS(=O)(=O)c3ccccc3)cc2C(=O)N([C@@H](C)CO)C[C@@H]1C
20	21[16.7 µM]	CNC(=O)C[C@@H]1CC[C@@H]2[C@H](COc3ccc(NC(=O)Nc4cccc(Cl)c4)cc3C(=O)N2C)O1
-21	-16[16.7 µM]	O=C(C[C@H]1CC[C@H](NC(=O)Nc2cc(F)ccc2F)[C@H](CO)O1)NCc1ccccn1
-14	-8[16.7 µM]	CCCNC(=O)N1[C@@H](C#N)[C@@H](c2ccc(C#Cc3cccc(F)c3)cc2)[C@@H]1CO
10	-22[16.7 µM]	CNC(=O)C[C@@H]1CC[C@H]2[C@H](COc3ccc(NC(=O)C4CCCCC4)cc3C(=O)N2C)O1
2	6[16.7 µM]	C[C@H]1CN([C@@H](C)CO)S(=O)(=O)c2ccc(-c3cccc(F)c3)cc2O[C@@H]1CN(C)C(=O)Nc1cc(F)ccc1F
-10	4[16.7 µM]	CC(C)NC(=O)N(C)C[C@H]1Oc2ncc(C#Cc3ccncc3)cc2C(=O)N([C@H](C)CO)C[C@H]1C
10	7[16.7 µM]	C[C@@H]1CN([C@@H](C)CO)C(=O)c2cc(C3=CCCCC3)cnc2O[C@@H]1CN(C)C(=O)c1ccc2c(c1)OCO2
-9	3[16.7 µM]	C[C@H](CO)N1C[C@H](C)[C@@H](CN(C)CC2CC2)Oc2ccc(NS(=O)(=O)c3cn(C)cn3)cc2C1=O
3	32[16.7 µM]	CC(C)CC#Cc1cnc2c(c1)C(=O)N([C@H](C)CO)C[C@@H](C)[C@H](CN(C)Cc1ccccc1F)O2
-1	-12[16.7 µM]	C[C@H](CO)N1C[C@H](C)[C@@H](CN(C)C(=O)Nc2ccccc2)OCCCC[C@H](C)Oc2ccc(NC(=O)CCCN(C)C)cc2C1=O
7	-27[16.7 µM]	Cc1ccc(S(=O)(=O)N(C)C[C@H]2OCCCC[C@H](C)Oc3ccc(NC(=O)CCC(F)(F)F)cc3C(=O)N([C@@H](C)CO)C[C@@H]2C)cc1
34	-5[16.7 µM]	CCCC#Cc1ccc([C@@H]2[C@H](C#N)N(C(=O)C3CC3)[C@H]2CO)cc1
-12	-35[16.7 µM]	COc1cccc(NC(=O)N(C)C[C@H]2Oc3cc(C#Cc4ccccc4)ccc3S(=O)(=O)N([C@H](C)CO)C[C@H]2C)c1
14	-2[16.7 µM]	CC(C)CC#Cc1cnc2c(c1)C(=O)N([C@H](C)CO)C[C@H](C)[C@@H](CN(C)C(=O)CN1CCOCC1)O2
-18	-10[16.7 µM]	O=C(C[C@@H]1CC[C@@H](NC(=O)Nc2ccc(C(F)(F)F)cc2)[C@H](CO)O1)NCCN1CCCC1
-12	-8[16.7 µM]	CN1C(=O)c2cc(NC(=O)C3CCOCC3)ccc2OC[C@@H]2O[C@@H](CC(=O)O)CC[C@@H]21
5	7[16.7 µM]	O=C(C[C@H]1CC[C@H](NS(=O)(=O)c2ccc(F)cc2)[C@@H](CO)O1)N1CCN(c2ccccc2)CC1
-8	5[16.7 µM]	C/C=C/c1ccc2c(c1)O[C@@H](CN(C)CC1CC1)[C@@H](C)CN([C@@H](C)CO)S2(=O)=O

Reprinted from above for reference:
Yeast UUG start	HIV Env fusion	smiles
-21	-16[16.7 µM]	O=C(C[C@H]1CC[C@H](NC(=O)Nc2cc(F)ccc2F)[C@H](CO)O1)NCc1ccccn1
-14	-8[16.7 µM]	CCCNC(=O)N1[C@@H](C#N)[C@@H](c2ccc(C#Cc3cccc(F)c3)cc2)[C@@H]1CO

Entries of single compounds from above. Order of values: Yeast UUG start, HIV Env fusion
C[C@H](CO)N1C[C@H](C)[C@@H](CN(C)CC2CC2)Oc2ccc(NS(=O)(=O)c3cn(C)cn3)cc2C1=O is listed with -9, 3[16.7 µM]
COc1ccccc1NC(=O)N[C@@H]1C=C[C@H](CC(=O)N2CCC(Cc3ccccc3)CC2)O[C@H]1CO is listed with 31, 22[16.7 µM]
C[C@H]1CN([C@@H](C)CO)C(=O)c2cc(NS(C)(=O)=O)ccc2O[C@H]1CN(C)Cc1ccc(C(=O)Nc2ccccc2N)cc1 is listed with -8, -3[16.7 µM]

Assay outcomes from PubChem BioAssay.
